Source: PubChem BioAssay
LASV entry inh: Lassa virus entry inhibition | Lassa virus pseudotype entry inhibition, cell reporter; control for the full effect not named in the record | Potency, µM (doses to about 37.9 µM), for inactives: at the top dose activity change, negative = inhibition, most hits filed as inhibitors | actives 1.2% (n = 300,000) | AID 540256; active means well fitted inhibition curve with a large enough effect; inconclusive means small, poorly fitted or top-dose-only effect, or effect the other way; inactive means flat fitted curve, though single readings scatter; tested in HEK293 cells; further: on the % scale 0 is the no-effect control and ±100 the full control effect; nearly all actives have a fitted effect of over 50% in size; luciferase read-out
Cruzain inh Det: cruzain (T. cruzi) inhibition with detergent. P25779. actives 0.43% (n = 200,000). purified cruzain, Z-FR-AMC fluorescence, 0.01% Triton. Potency, µM, for inactives: max response, negative = inhibition, most hits filed as inhibitors;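 further: plate controls were neutral wells for no effect and buffer without enzyme for full effect; nearly all actives have a fitted effect of over 40% in size; top concentration of the series not given in the record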
Target sequence (P25779 123-467 limits assumed): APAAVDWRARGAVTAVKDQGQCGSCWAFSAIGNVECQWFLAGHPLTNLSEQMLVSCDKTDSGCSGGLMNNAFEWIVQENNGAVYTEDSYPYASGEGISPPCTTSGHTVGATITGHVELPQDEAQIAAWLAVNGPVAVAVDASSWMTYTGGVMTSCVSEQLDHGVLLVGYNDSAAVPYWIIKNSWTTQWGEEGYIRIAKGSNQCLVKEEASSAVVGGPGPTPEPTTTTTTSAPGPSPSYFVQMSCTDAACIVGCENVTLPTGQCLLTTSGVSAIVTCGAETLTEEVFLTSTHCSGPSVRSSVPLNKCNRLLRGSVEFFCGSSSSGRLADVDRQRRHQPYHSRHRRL
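15 min RT preincubation of 1.5 nM cruzain with compound, then 2 uM Z-FR-AMC added; kinetic AMC fluorescence, 60 s delta. Triton X-100 0.01%, pH 5.5.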
RE007 growth inh: less growth of the S. pombe RE007 Vpr strain | AID 651644 | actives 0.21% (n = 360,000) | Potency, µM (titrated, usually from 92.2 µM), inactives show at the highest dose activity change, negative = less growth | S. pombe RE007 Vpr strain, BacTiter-Glo ATP luminescence, 24 h; control for the full effect not named in the record; active = well fitted falling curve with a large enough effect; inconclusive = small, poorly fitted or top-dose-only effect; inactive = no such curve, though single readings can be large or run the other way;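 further: on the % scale 0 is the no-effect control and ±100 the full control effect; nearly all actives have a fitted effect of over 50% in size; the assay follows cell death caused by Vpr and the record does not say whether a fall means rescue or toxicity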
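Fission yeast strain RE007, carrying one chromosomally integrated HIV-1 vpr copy, was seeded at OD 0.01 in PMG+AL medium with 23 nL pinned compound. After 24 h at 30 °C and 99% humidity, viability was read by BacTiter-Glo luminescence.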
MARV entry inh: inhibitors of Marburg virus binding or cell entry | Marburg virus pseudotyped entry inhibition, cell reporter; control for the full effect not named in the record; about a third of the inactives were read at about 46 µM | Potency, µM (doses to about 37.8 µM), without a hit: top-dose activity change, negative = inhibition, actives largely listed as inhibitors | actives 1.8% (n = 300,000) | AID 540276; active = well fitted inhibition curve with a large enough effect; inconclusive = small, poorly fitted or top-dose-only effect, or effect the other way; inactive = flat fitted curve, though single readings scatter; tested in HEK293 cells; about a fifth of its hits are not listed in these tables; further: on the % scale 0 is the no-effect control and ±100 the full control effect; luciferase read-out
2A StopGo: lowers the luciferase signal of an FMDV 2A StopGo reporter; human cells with a luciferase reporter of 2A StopGo recoding; control for the full effect not named in the record; Potency, µM (highest dose often 57.9 µM), without a hit: at the highest dose signal change, negative = less light; actives 1.2% (n = 410,000); active = well fitted falling curve with a large enough effect; inconclusive = small, poorly fitted or top-dose-only effect; inactive = no such curve, though single readings can be large or run the other way; tested in HEK293T cells; further: on the % scale 0 is the no-effect control and ±100 the full control effect; nearly all actives have a fitted effect of over 45% in size; luciferase light after 4 h
Cruzain noTriton: inhibitors of Trypanosoma cruzi cruzain without detergent | P25779 | purified cruzain, Z-FR-AMC fluorescence, no detergent | Potency, µM, for the others: max response, negative = inhibition, usual class: inhibitors | actives 2.3% (n = 200,000) | AID 1476;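 further: plate controls were enzyme without inhibitor for no effect and buffer without enzyme for full effect; nearly all actives have a fitted effect of over 40% in size; top concentration of the series not given in the record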
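Detergent-free condition (0.00005% Triton X-100) in acetate buffer pH 5.5 with DTT. 1.5 nM enzyme and compound were pre-mixed 15 min, then 2 uM Z-FR-AMC substrate added; reaction progress from fluorescence change between first and third reads (60 s).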
NS1 function inh: influenza NS1 inhibition; S. cerevisiae slowed by influenza A NS1, growth recovery by OD600; Potency, µM (doses to about 46.1 µM), for the others: top-dose activity, positive = more growth; actives 0.4% (n = 270,000); active means well fitted rising curve with a large enough effect; inconclusive means small, poorly fitted or top-dose-only effect; inactive means no such curve, though single readings can be large or run the other way; further: nearly all actives have a fitted effect of over 50% in size
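Recovery from NS1-induced slow growth read by OD600 in budding yeast switched to galactose assay medium (pH 6.0, -URA) at 1:100 dilution. Compound 23 nl per well; the matching strain lacking NS1 serves as control.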
SARS PLpro yeast: blocks SARS-CoV papain-like protease in a yeast assay; Potency, µM (series often up to 32.9 µM), for inactives: at the top dose activity, positive = growth rescue; S. cerevisiae expressing SARS-CoV PLpro, growth rescue; control for the full effect not named in the record; actives 0.19% (n = 330,000); AID 485353; active means well fitted rising curve with a large enough effect; inconclusive means small, poorly fitted or top-dose-only effect; inactive means no such curve, though single readings can be large or run the other way; further: 0% is about no effect; nearly all actives have a fitted effect of over 55% in size; growth read by luminescence after 48 h
Active calls of the source: *; ? = inconclusive; nt = not tested or not shown; & = joins results of further samples; [ ] = another dose, or the depositor's remark. Unless noted, the call rests on the fitted dose curve; in most records, active means well fitted curve in the direction sought with a large enough effect; inconclusive means small, poorly fitted or top-dose-only effect, or another doubt; inactive means no such curve, though single readings can be large; an effect the other way counts as inactive or inconclusive. Potency means the concentration at half of the fitted maximal effect. This is a random part of the collection (roughly 4.5% active in at least one column).

SMILES	LASV entry inh	Cruzain inh Det	RE007 growth inh	MARV entry inh	2A StopGo	Cruzain noTriton	NS1 function inh	SARS PLpro yeast
O=C(NC1CCCc2ccccc21)C1CCN(S(=O)(=O)c2cccc3nonc23)CC1 (stereo not drawn)	-12.6%	4.9%	5.9%	-23.4%	-4.6%	?	1.9%	1.5%
CC(C)(C)c1cc(C(=O)NCCCn2ccnc2)cc(C(C)(C)C)c1	nt	nt	2.3%	nt	46.4%[activator]	nt	10.2%	-1.0%
Cc1cc(F)ccc1S(=O)(=O)Nc1ccccc1C(=O)Nc1ccccc1-c1nc2ccccc2[nH]1	11.2µM*	-0.8%	-3.5%	?	0.0%	-27.6%	17.5%	-4.3%
O=C(/C=C/c1ccc(N2CCCCC2)c([N+](=O)[O-])c1)c1ccc(S(=O)(=O)N2CCCC2)cc1	-4.9%	-5.5%	-16.7%	?	20µM*	31.6µM*	-1.8%	-5.4%
CCOC(=O)N1CCN(C(=O)CN(C)S(=O)(=O)c2ccc(OC)c(OC)c2)CC1	-14.2%	3.6%	-2.7%	?	?	2.9%	9.5%	-3.4%
COCC(C)n1c(SCc2nc(N)nc(Nc3ccccc3C)n2)nc2ccccc2c1=O (stereo not drawn)	-23.2%	-4.3%	26.8%	?	-27.8%	-11.1%	-10.4%	-2.0%
Nc1ccc(C(=O)Nc2ccc3nc(-c4ccncc4)[nH]c3c2)cc1	nt	nt	3.8%	nt	15.8%	nt	8.2%	-0.3%
CCN(CC)S(=O)(=O)c1ccc(N2CCCC2)c(NC(=O)Cc2c(F)cccc2Cl)c1	nt	nt	3.2%	nt	11.6%	nt	15.1%	-1.0%
O=C1NC(=S)SC1=Cc1cc(Br)ccc1O	0.6%[46.1 µM]	nt	3.0%	?	-22.2%	nt	nt	nt
COc1cc(NC(=O)c2cc(-c3ccccc3O)no2)cc(OC)c1OC	-26.3%[46.1 µM]	-6.7%	nt	nt	-22.3%	?	nt	nt
Cc1nc2oc3c(NCc4ccccn4)ncnc3c2c2c1COC(C)(C)C2	-3.7%	-5.5%	2.2%	-27.9%	5.6%	?	-15.4%	0.6%
O=C(OC(C(=O)Nc1cccc(C(F)(F)F)c1)c1ccccc1)C1CCCCC1 (stereo not drawn)	?	-13.2%	nt	1.9%	39.7%[activator]	-3.5%	-10.9%	-27.3%
C[C@]12CCC3C(CC[C@@H]4[C@H]5O[C@H]5CC[C@]34C)C1CC[C@@H]2O (stereo partly drawn)	-9.4%[46.1 µM]	nt	6.7%	?	-19.2%	nt	nt	nt
CCCOc1ccc(C(CC(=O)O)NC(=O)c2cccs2)cc1 (stereo not drawn)	-2.8%	7.2%	-4.9%	4.7%	10.8%	-5.2%	3.7%	-5.6%
Cc1ccc(OCc2nc3ccccc3[nH]2)cc1	?	-1.2%	7.6%	?	-13.7%	0.1%	-23.1%	-16.0%
Cc1cc(=O)oc2cc(NC(=O)Cc3ccccc3)ccc12	20.9%	nt	-22.4%	?	51.8%[activator]	nt	-1.7%	-1.3%
Nc1ncc(S(=O)(=O)Nc2ccc(OC(F)(F)F)cc2)cn1	19.1%[46.1 µM]	-2.8%	nt	nt	-7.6%	-3.7%	nt	nt
CSc1ccc2[nH]c(=O)cc(C)c2c1	9.7%	-5.2%	6.5%	3.5%	-7.6%	-7.3%	-0.1%	5.8%
COc1cc(CNC2CCCCCC2)cc(OC)c1O	-13.2%	4.6%	12.6%	2.4%	4.8%	-2.9%	-2.5%	-2.0%
O=C(Cc1n[nH]c(=O)c2ccccc12)N/N=C/c1cc2c(cc1Cl)OCO2	3.1%	nt	3.7%	-13.3%	-10.2%	nt	-4.5%	-0.6%
CC1CCCN(S(=O)(=O)c2ccc3[nH]c4c(c3c2)CCCC4)C1 (stereo not drawn)	?	nt	16.2%	?	-6.3%	nt	-53.4%	-7.5%
O=C(COc1ccc2ccccc2c1Br)N1CCCCC1	nt	nt	?	nt	53.9%[activator]	nt	-19.0%	-4.1%
Cc1ccc(S(=O)(=O)N2CCOCC2)c2nsnc12	-9.6%	-1.6%	-4.3%	?	1.4%	0.7%	1.2%	12.1%
Fc1ccc(-n2nnc(-c3ccccc3)n2)cc1	nt	nt	-2.3%	nt	-2.4%	nt	7.8%	4.7%
CCOC(=O)N1CCN(CC(O)COCc2ccccc2)CC1 (stereo not drawn)	12.8%	-0.2%	24.9%	3.2%	-7.7%	6.4%	12.6%	?
COc1ccc(N(CC(=O)NC(C)c2ccccc2)S(=O)(=O)c2c(C)noc2C)cc1 (stereo not drawn)	?	-1.9%	-12.2%	7.3%&-2.8%[46.1 µM]	0.0%&-0.1%	-0.5%	4.5%	-2.6%
CCCSc1ncc(Cl)c(C(=O)NCc2ccc(OC)cc2)n1	-11.9%[46.1 µM]	-4.8%	nt	?	-6.9%	-20.1%	nt	nt
Cc1cnc(C(=O)Nc2ccccc2F)cn1	11.1%	-0.3%	-16.3%	-3.9%	31.3%[activator]	-5.1%	-4.0%	-8.3%
CCn1nnnc1NC(=O)c1cc(Cl)c(OC)c(Cl)c1	-3.0%[46.1 µM]	nt	5.2%	-4.9%[46.1 µM]	-14.1%	nt	-2.5%	-1.9%
CCN(CC)C(=O)CN(c1ccc(F)c(Cl)c1)S(C)(=O)=O	7.9%	1.7%	8.6%	8.5%	11.0%	6.5%	1.5%	-1.7%
Cc1ccc(S(=O)(=O)Nc2ccc3c(c2)CCCN3C(=O)c2cccs2)cc1	?	-8.6%	nt	nt	-17.4%	-3.4%	nt	nt
CCOc1cc(C2C3=C(CC(C)(C)CC3=O)N(CCCOC)C3=C2C(=O)CC(C)(C)C3)ccc1OC	nt	nt	8.3%	nt	-2.3%	nt	-4.9%	-0.7%
COC(=O)c1cc(Br)c(=O)n(CCN2CCCCC2)c1	-1.2%	-4.0%	3.9%	0.0%	6.3%	6.0%	-2.8%	1.1%
Cc1ccc(-n2ncc(C(=O)NCCN3CCc4ccccc4C3)c2C2CCN(C(=O)OC(C)(C)C)CC2)cc1	?	-1.6%	nt	nt	-6.4%	-5.9%	nt	nt
CCNC(=O)NC(=O)C(C)Oc1ccc(Br)cc1Br (stereo not drawn)	0.6%	nt	25.5%	?	35.6%[activator]	nt	nt	-1.1%
C=CCOc1c(Cl)cc(CNc2ccc(N(C)C)cc2)cc1OC	?	-12.6%	-18.3%	?	-17.0%	-9.8%	28.2%	-1.5%
COc1ccc(Cl)cc1NS(=O)(=O)c1cccc(C(=O)NC2CCC(O)CC2)c1 (stereo not drawn)	-5.7%	nt	-0.4%	2.4%	35.5%[activator]	nt	nt	-0.1%
O=c1[nH]c(=O)c2cc([N+](=O)[O-])cc([N+](=O)[O-])c2[nH]1	4.4%	nt	-6.9%	1.7%[14.2 µM]	-18.5%	nt	nt	1.3%
O=C1CN(C(=O)c2ccc(S(=O)(=O)N3CCCC3)cc2)C(c2ccccc2)c2cc(F)ccc2N1 (stereo not drawn)	?	-0.3%	nt	14.5%[46.1 µM]	0.0%	-7.8%	nt	nt
COc1ccc(NC(=O)NCc2ccco2)c(OC)c1	3.1%	nt	-0.1%	-0.2%	5.7%	nt	-5.6%	0.0%
COc1ccc(-c2cnn3c(N)c(S(=O)(=O)C(C)(C)C)cnc23)cc1	-25.3%	-2.8%	3.2%	0.3%	-6.0%	10.3%	24.4%	-6.6%
COC(=O)C(NC(=O)C(NC(=O)c1ccccc1)C(C)C)C(C)C (stereo not drawn)	9.9%	-3.8%	0.9%	-1.8%	-5.6%	17.3%	-22.6%	1.0%
NC(=O)CC(NC(=O)c1ccc(Br)cc1)c1ccc(N2CCCCCC2)c([N+](=O)[O-])c1 (stereo not drawn)	nt	nt	4.7%	nt	-14.0%	nt	15.5%	3.1%
CSc1ccccc1NC(=S)NCc1ccc(Cl)cc1	nt	nt	-0.3%	nt	42.2%[activator]	nt	-17.1%	14.7%
O=c1c2cc(N3CCOCC3)ccc2[nH]c(=S)n1CCc1ccccc1	-3.7%	nt	-3.4%	-12.9%[46.1 µM]	12.2%	nt	nt	1.6%
CS(=O)(=O)N1CCN(C(=O)COc2ccc3ccccc3c2)CC1	0.0%	nt	0.3%	1.2%[46.1 µM]	-20.8%	nt	2.7%	0.4%
COc1ccccc1C(=O)Nc1nsc(-c2ccccc2)n1	nt	nt	?	nt	42.7%[activator]	nt	-58.8%	-7.0%
CCOc1cc(CNCCc2ccccc2)ccc1OCC(=O)NC(C)(C)C	?	8.2%	-2.8%	?	-24.3%	-0.7%	1.5%	17.8µM*
O=C(Cn1cc(S(=O)(=O)Cc2ccc([N+](=O)[O-])cc2)c2ccccc21)N1CCOCC1	?	nt	-5.1%	9.1%	-12.4%	nt	14.5%	-3.0%
CC(=O)Nc1ccc(-c2csc(NC(=O)Cc3ccccc3F)n2)cc1	?	nt	-10.5%	-41.2%	35.1%	nt	12.4%	-3.7%
Cc1c(/C=N/NC(=O)c2cc(Br)ccc2O)c(=O)n(C)c(=O)n1C	-10.5%[46.1 µM]	nt	-3.1%	-5.6%[46.1 µM]	5.2%	nt	?	2.4%
O=C(/C(C=Nc1cccc(C(F)(F)F)c1)=C(/O)c1ccco1)C(F)(F)F	12.2%	-9.2%	-11.3%	?	14.7%	-1.9%	5.6%	-0.3%
CC1=C(C(=O)N2CCN(c3cccc(C)c3C)CC2)C2(CCCCC2)OC1=O	?	-1.9%	nt	2.3%[46.1 µM]	-19.7%	8.9%	nt	nt
COc1cc(NC(=O)CSc2nnc3c(C)cc4c(C)ccc(C)c4n23)c(C(=O)O)cc1OC	2.3%	nt	17.7%	1.4%[46.1 µM]	-4.8%	nt	1.9%	-1.2%
Cc1nn(-c2ccccc2)c(Cl)c1C1C(C#N)=C(N)OC2=C1C(=O)CCC2 (stereo not drawn)	-17.2%	-0.2%	-3.4%	-2.3%	-21.1%	6.1%	-1.9%	3.7%
